# Vaccinia inh = Vaccinia orthopox stage-specific inhibition. Vaccinia-infected cells, mCherry/Venus stage reporter fluorescence; active compounds read low; some inactives read as strong as hits. activity change (mCherry), % (test concentration not listed). AID 1053133. 0.01% of 89,000 active;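 active means mCherry past -33% and 40 or more points under the early reporter, replicates agreeing; inconclusive means past -33% without that gap or agreement; tested in A549 cells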;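 further: scaled between vehicle wells and reference inhibitor wells; 23 nL library stock went into each well; one replicate is shown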
# Vaccinia inh Venus = second read-out of Vaccinia inh, no call of its own (marks repeat the call); activity change (Venus), %; measured here: Venus reporter, other viral stage;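 negative = less Venus signal; first of two replicates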
# The depositor's hits bear a star; ? = inconclusive; . = no result given. Some of the compounds tested. The share of hits here may be higher or lower than overall.
SMILES,Vaccinia inh,Vaccinia inh Venus
COc1ccc2c3c(n(C)c2c1)[C@@H](CO)N(C(=O)Nc1ccccc1F)CC31CN(C(C)=O)C1,-16,-15
Cc1cc(C(=O)Nc2ccc3c(c2)C(=O)N(C)[C@@H]2CC[C@H](CC(=O)NCc4ccc(-c5ccccc5)cc4)O[C@@H]2CO3)no1,-28,-22
Cc1ccc(S(=O)(=O)N(C)C[C@H]2OCCCC[C@H](C)Oc3ccc(NS(=O)(=O)c4ccc(F)cc4)cc3C(=O)N([C@@H](C)CO)C[C@@H]2C)cc1,?,.
O=C(Nc1ccc(F)cc1)N1CCCCN2[C@H](CO)[C@H](c3ccc(-c4ccccc4F)cc3)[C@H]2C1,?,.
C[C@@H]1CN([C@@H](C)CO)S(=O)(=O)c2ccc(C#CC3CC3)cc2O[C@@H]1CN(C)Cc1ccc(F)cc1,?,.
COc1ccccc1C#Cc1ccc2c(c1)O[C@@H](CN(C)Cc1ccncc1)[C@H](C)CN([C@@H](C)CO)S2(=O)=O,?,.
C[C@@H]1CN([C@@H](C)CO)C(=O)c2cc(C#CC(C)(C)O)cnc2O[C@@H]1CN(C)C(=O)CN(C)C,11,8
C#Cc1ccc([C@@H]2C=C(C(=O)N3CCOCC3)O[C@H](OCCCCO)C2)cc1,8,6
C[C@H]1CN([C@@H](C)CO)C(=O)Cc2cc(NC(=O)CCC(F)(F)F)ccc2O[C@@H]1CN(C)CC1CC1,-8,10
O=C(C[C@@H]1C=C[C@H](NC(=O)Nc2ccc(C(F)(F)F)cc2)[C@@H](CO)O1)NCc1cc(F)cc(F)c1,-10,-7

# Sorted by molar mass (rising): 3 of the compounds above.
SMILES,Vaccinia inh,Vaccinia inh Venus
C#Cc1ccc([C@@H]2C=C(C(=O)N3CCOCC3)O[C@H](OCCCCO)C2)cc1,8,6
COc1ccc2c3c(n(C)c2c1)[C@@H](CO)N(C(=O)Nc1ccccc1F)CC31CN(C(C)=O)C1,-16,-15
O=C(Nc1ccc(F)cc1)N1CCCCN2[C@H](CO)[C@H](c3ccc(-c4ccccc4F)cc3)[C@H]2C1,?,.

# The listing continues:
SMILES,Vaccinia inh,Vaccinia inh Venus
CNC[C@@H]1OCCCC[C@H](C)Oc2ccc(NC(=O)Cc3ccccc3)cc2C(=O)N([C@@H](C)CO)C[C@H]1C,-2,11
CO[C@@H]1CN(C)C(=O)c2cc(NC(=O)c3nc4ccccc4s3)ccc2OC[C@H](C)N(Cc2ccncc2)C[C@H]1C,?,.
C[C@H]1CN([C@@H](C)CO)C(=O)Cc2cc(NC(=O)Nc3cccc4ccccc34)ccc2O[C@@H]1CN(C)Cc1ccc(Cl)c(Cl)c1,0,7
O=C(NCC[C@H]1CC[C@@H](NC(=O)C2CCCC2)[C@H](CO)O1)c1cnccn1,-7,1
C[C@@H]1CN([C@@H](C)CO)S(=O)(=O)c2ccc(C#CCN(C)C)cc2O[C@H]1CN(C)Cc1ccc(F)cc1,?,.
C[C@@H]1CN([C@@H](C)CO)C(=O)c2cc(N(C)C)ccc2O[C@H]1CN(C)Cc1ccccc1,3,12
O=C(O)C[C@@H]1C[C@H]2c3cc(NC(=O)Cc4ccncc4)ccc3O[C@H]2[C@@H](CO)O1,16,10
C[C@@H]1CCCCO[C@H](CN(C)Cc2ccccc2)[C@@H](C)CN([C@@H](C)CO)C(=O)c2cc(NC(=O)Nc3cccc4ccccc34)ccc2O1,?,.
CC(C)NC(=O)N(C)C[C@H]1Oc2c(NC(=O)CCCCCC(=O)Nc3ccccc3N)cccc2C(=O)N([C@H](C)CO)C[C@H]1C,31,19
C[C@H]1CN([C@@H](C)CO)C(=O)c2cc(NC(=O)Nc3ccc(C(F)(F)F)cc3)ccc2O[C@H]1CN(C)Cc1ccncc1,-16,-11
COc1ccccc1CNC(=O)C[C@@H]1CC[C@@H]2[C@H](COC[C@@H](O)CN2Cc2ccccc2)O1,6,-8
O=C(C[C@H]1C[C@H]2c3cc(NC(=O)Cc4ccncc4)ccc3O[C@H]2[C@H](CO)O1)NCc1ccc(-c2ccccc2)cc1,-1,6
CO[C@@H]1CN(C)C(=O)c2ccc(NC(=O)c3ccccc3F)cc2OC[C@H](C)N(C(C)=O)C[C@@H]1C,0,-2
COc1ccc2c3c([nH]c2c1)[C@@H](CO)N(C(=O)C1CCCC1)CC31CCN(Cc2nccs2)CC1,-8,-15
C[C@@H]1CN([C@@H](C)CO)C(=O)c2cc(NC(=O)Cc3cn(C)c4ccccc34)ccc2O[C@@H]1CN(C)Cc1ccc(Cl)c(Cl)c1,?,.
CC(=O)N1[C@H](CO)[C@H](c2ccccc2)[C@@H]1CN(C)S(=O)(=O)c1ccccc1,0,-2
O=S(=O)(c1cccc(F)c1)N1CC[C@@H]2[C@@H](CO)Nc3ccc(Br)cc3[C@@H]21,-24,-19
C[C@H]1CN([C@@H](C)CO)C(=O)c2cc(NC(=O)CCC(F)(F)F)ccc2O[C@@H]1CN(C)S(=O)(=O)c1ccc(F)cc1,8,7
C[C@H](CO)N1C[C@H](C)[C@@H](CN(C)C(=O)C2CC2)Oc2ncc(C#Cc3ccccc3)cc2C1=O,8,-3
CNC[C@H]1Oc2c(NC(=O)C3CCCCC3)cccc2C(=O)N([C@H](C)CO)C[C@@H]1C,10,14
CC(C)NC(=O)N(C)C[C@H]1Oc2ccc(NS(=O)(=O)c3cn(C)cn3)cc2CC(=O)N([C@@H](C)CO)C[C@@H]1C,20,17
CCC(=O)N(C)C[C@H]1Oc2cc(C#CCC3CCCC3)ccc2S(=O)(=O)N([C@@H](C)CO)C[C@H]1C,?,.
COCc1cn(CC[C@@H]2CC[C@@H](NC(=O)Nc3ccc(OC)cc3)[C@@H](CO)O2)nn1,1,0
COc1cccc(NC(=O)N2CC(=O)N3[C@H](C2)[C@@H](c2ccc(Br)cc2)[C@@H]3CO)c1,-29,-18
O=C(Nc1ccccc1F)N1CC(=O)N2[C@H](CO)[C@@H](c3ccc(-c4ccccc4)cc3)[C@@H]2C1,-17,-7
CCCN(C)C[C@H]1Oc2cc(C#CC3CCCC3)ccc2S(=O)(=O)N([C@H](C)CO)C[C@@H]1C,-20,-15
CN1CCN(C(=O)C[C@@H]2C[C@H]3c4cc(NC(=O)CC5CC5)ccc4O[C@H]3[C@H](CO)O2)CC1,13,10
COc1ccc(S(=O)(=O)Nc2cccc3c2O[C@@H](CN(C)Cc2ccncc2)[C@@H](C)CN([C@@H](C)CO)C3=O)cc1,14,13
CCN1[C@H](C(=O)N(C)C)[C@@H](CO)[C@@H]2Cn3c(ccc(-c4ccccc4OC)c3=O)[C@@H]21,8,12
C[C@@H]1CN([C@@H](C)CO)C(=O)c2cc(NC(=O)Nc3cccc4ccccc34)ccc2O[C@@H]1CN(C)S(C)(=O)=O,21,9
C[C@H](CO)N1C[C@H](C)[C@H](CN(C)Cc2ccc(C(F)(F)F)cc2)OCCCC[C@H](C)Oc2ccc(NS(=O)(=O)c3ccc(F)cc3)cc2C1=O,?,.
COc1ccc(NC(=O)N[C@@H]2CC[C@@H](CCn3cc(-c4ccccc4)nn3)O[C@H]2CO)cc1,-1,-6
CN(C)CC#Cc1ccc([C@H]2[C@H]3CN(C(=O)c4ccccc4)CC(=O)N3[C@H]2CO)cc1,6,3
COc1cccc(-c2ccc3n(c2=O)C[C@H]2[C@H](CO)[C@@H](C(=O)N4CCCCC4)N(C)[C@@H]32)c1,-7,3
C[C@@H]1CN([C@H](C)CO)C(=O)c2cc(NC(=O)CCCN(C)C)ccc2O[C@@H](C)CCCCO[C@H]1CN(C)S(=O)(=O)c1cn(C)cn1,17,7
C[C@H]1CN([C@@H](C)CO)C(=O)Cc2cc(NC(=O)C3CC3)ccc2O[C@@H]1CN(C)S(=O)(=O)c1ccccc1,16,18
O=C(C[C@H]1C[C@@H]2c3cc(NC(=O)NC4CCCC4)ccc3O[C@@H]2[C@H](CO)O1)NCc1ccc(Oc2ccccc2)cc1,12,8
C[C@H](CO)N1C[C@H](C)[C@H](CN(C)S(=O)(=O)c2ccc(F)cc2)Oc2ccc(N(C)C)cc2C1=O,-1,-3
C[C@@H]1CN([C@@H](C)CO)C(=O)c2cc(NS(=O)(=O)c3ccccc3)ccc2O[C@@H](C)CCCCO[C@@H]1CN(C)C(=O)Nc1cccc2ccccc12,25,16
O=C(Nc1cccc(Cl)c1)N1C[C@H]2[C@@H](c3ccccc31)[C@H](CO)N2C(=O)C1CC1,-5,13
CCCN(C)C[C@H]1OCCCC[C@@H](C)Oc2ccc(NC(=O)Nc3c(C)noc3C)cc2C(=O)N([C@H](C)CO)C[C@@H]1C,-11,-17
C[C@@H]1CN([C@@H](C)CO)S(=O)(=O)c2ccc(/C=C/c3ccccc3)cc2O[C@H]1CN(C)C(=O)NC1CCCCC1,-20,-20
C[C@@H]1CN([C@H](C)CO)C(=O)c2cc(NC(=O)Nc3ccc4c(c3)OCO4)ccc2O[C@H]1CN(C)C(=O)Nc1ccc2c(c1)OCO2,8,9
O=C(CC(F)(F)F)N1C[C@H]2[C@@H](c3ccccc31)[C@@H](CO)N2Cc1cccnc1,3,12
C[C@H]1CN([C@@H](C)CO)C(=O)c2ccccc2-c2ccccc2CO[C@H]1CN(C)Cc1cccc(O)c1,-3,-9
CCC(=O)N1CCCCN2[C@H](CO)[C@@H](c3ccc(-c4cccc(C#N)c4)cc3)[C@H]2C1,-10,-11
C[C@H]1CCCCO[C@@H](CN(C)Cc2ccc(C(=O)O)cc2)[C@@H](C)CN([C@@H](C)CO)C(=O)c2cc(NC(=O)Nc3ccc(C(F)(F)F)cc3)ccc2O1,4,-4
O=C(N[C@@H]1CC[C@@H](CCNC(=O)C2CC2)O[C@@H]1CO)c1ccncc1,7,6
CC(C)NC(=O)Nc1ccc2c(c1)C(=O)N([C@@H](C)CO)C[C@H](C)[C@@H](CN(C)Cc1ccc(Oc3ccccc3)cc1)O2,-21,-16
COc1ccc(CN2[C@H](CO)[C@@H]3c4ccccc4NC[C@@H]32)cc1,0,4

# 4 compounds drawn at random from those above, as already listed:
SMILES,Vaccinia inh,Vaccinia inh Venus
O=C(CC(F)(F)F)N1C[C@H]2[C@@H](c3ccccc31)[C@@H](CO)N2Cc1cccnc1,3,12
CC(C)NC(=O)Nc1ccc2c(c1)C(=O)N([C@@H](C)CO)C[C@H](C)[C@@H](CN(C)Cc1ccc(Oc3ccccc3)cc1)O2,-21,-16
C[C@@H]1CN([C@@H](C)CO)S(=O)(=O)c2ccc(/C=C/c3ccccc3)cc2O[C@H]1CN(C)C(=O)NC1CCCCC1,-20,-20
COc1ccc(CN2[C@H](CO)[C@@H]3c4ccccc4NC[C@@H]32)cc1,0,4

# Continued.
SMILES,Vaccinia inh,Vaccinia inh Venus
Cc1noc(C)c1S(=O)(=O)Nc1ccc2c(c1)CC(=O)N([C@@H](C)CO)C[C@@H](C)[C@@H](CN(C)Cc1ccc(-c3ccccc3)cc1)O2,-28,-21
CO[C@H]1CN(C)C(=O)c2cc(NS(=O)(=O)CC(F)(F)F)ccc2OC[C@@H](C)N(Cc2ccccn2)C[C@@H]1C,9,9
CC(=O)N(C)C[C@@H]1Oc2cc(-c3ccccc3)ccc2S(=O)(=O)N([C@H](C)CO)C[C@@H]1C,5,-9
CC(C)NC(=O)N(C)C[C@H]1Oc2c(NS(=O)(=O)c3ccccc3)cccc2C(=O)N([C@H](C)CO)C[C@@H]1C,6,-3
CS(=O)(=O)N1CC2(C1)[C@H](c1ccccc1)[C@@H](CO)N2C(=O)c1ccccc1,-4,7
COc1cccc(CNC(=O)[C@H]2[C@H](CO)[C@H]3Cn4c(cccc4=O)[C@@H]2N3C(=O)C2CC2)c1,23,18
Cc1ccc(S(=O)(=O)N(C)C[C@H]2Oc3c(NC(=O)c4cc(C)nn4C)cccc3C(=O)N([C@@H](C)CO)C[C@@H]2C)cc1,5,4
CC(C)NC(=O)Nc1ccc2c(c1)C(=O)N([C@@H](C)CO)C[C@H](C)[C@H](CN(C)S(=O)(=O)c1ccc(Cl)cc1)OCCCC[C@@H](C)O2,10,5
Cc1ccc(S(=O)(=O)N(C)C[C@@H]2OCCCC[C@@H](C)Oc3ccc(NS(=O)(=O)c4ccccc4)cc3C(=O)N([C@H](C)CO)C[C@@H]2C)cc1,2,3
C[C@H]1CN([C@@H](C)CO)C(=O)Cc2cc(NS(=O)(=O)c3ccc(Cl)cc3)ccc2O[C@H]1CN(C)S(=O)(=O)c1cccs1,3,-4
C[C@H](CO)N1C[C@H](C)[C@@H](CN(C)C(=O)Cc2cccnc2)Oc2ncc(-c3ccccc3)cc2C1=O,9,7
O=C(C[C@@H]1CC[C@H](NC(=O)c2ccncc2)[C@H](CO)O1)Nc1ccccc1,5,5
N#C[C@@H]1[C@H](c2ccccc2-c2cccc(F)c2)[C@@H](CO)N1C(=O)C1CCC1,4,4
Cc1noc(C)c1NC(=O)N(C)C[C@@H]1Oc2ccc(NS(C)(=O)=O)cc2C(=O)N([C@@H](C)CO)C[C@@H]1C,4,3
CCCNC(=O)[C@H]1[C@H](CO)[C@H]2Cn3c(cccc3=O)[C@@H]1N2C(=O)C1CCCC1,1,2
C/C=C/c1ccccc1[C@@H]1[C@@H](CO)N(C(=O)NC2CCCCC2)[C@H]1C#N,-4,-5

# Profiles from above:
# CCCNC(=O)[C@H]1[C@H](CO)[C@H]2Cn3c(cccc3=O)[C@@H]1N2C(=O)C1CCCC1 as listed: Vaccinia inh = 1; Vaccinia inh Venus = 2
# C[C@H](CO)N1C[C@H](C)[C@@H](CN(C)C(=O)Cc2cccnc2)Oc2ncc(-c3ccccc3)cc2C1=O as listed: Vaccinia inh = 9; Vaccinia inh Venus = 7

# Source: PubChem (Broad Institute)
